Screening data deposited in PubChem by National Center for Advancing Translational Sciences (NCATS).
HPGD inh: inhibitors of human 15-hydroxyprostaglandin dehydrogenase (HPGD) | P15428 | purified HPGD, NADH fluorescence kinetic, PGE2 substrate | Potency, µM, without a hit: at the top dose activity change, negative = inhibition, actives largely listed as inhibitors | 150,000 compounds, 4.3% hits | AID 894; active = well fitted inhibition curve with a large enough effect (not every such curve was filed as active); inconclusive = small, poorly fitted or top-dose-only effect, or another doubt; inactive = no such curve, though single readings can be large or run the other way;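 also: top concentration of the series not given in the record; plate controls included wells without enzyme; inactives centre near -10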
Target sequence (P15428 whole entry, looked up): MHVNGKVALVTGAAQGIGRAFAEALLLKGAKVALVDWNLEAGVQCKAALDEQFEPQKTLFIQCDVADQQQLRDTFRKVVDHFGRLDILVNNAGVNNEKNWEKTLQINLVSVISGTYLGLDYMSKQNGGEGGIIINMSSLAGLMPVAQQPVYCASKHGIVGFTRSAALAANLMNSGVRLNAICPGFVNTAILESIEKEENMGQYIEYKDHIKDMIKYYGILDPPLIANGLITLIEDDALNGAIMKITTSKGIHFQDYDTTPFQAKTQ
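20 nM HPGD preincubated 15 min at room temperature with compound in 50 mM Tris-HCl pH 8, 0.01% Tween 20. Started with 1 mM NAD+ and 30 uM prostaglandin E2; NADH fluorescence (360/450 nm) read 5 times over 30-s intervals, last minus first.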
Active calls of the source: *; u = inconclusive. % is scaled to controls: 0 for no effect and ±100 for the full control effect; potency is read from the fitted curve at half-maximal effect. Only part of the results is shown; rates above refer to the full screens.

SMILES	HPGD inh
CCOC(=O)CSc1nc2cc(C(=O)NCc3ccco3)ccc2c(=O)n1C1CCCCC1	-9%
CCN(CC)S(=O)(=O)c1ccc(C(=O)Nc2ccc(OCC(=O)N3CCOCC3)cc2)cc1	-5%
COc1ccc(OCC(=O)Nc2ccc(S(=O)(=O)N3CCCCCC3)cc2)cc1	-15%
CCCOc1ccc(C2NC(=S)NC(c3ccccc3)=C2C(=O)Nc2ccc(C)cc2)cc1OC (stereo unspecified)	-10%
Cc1nnc(SCCn2c(N3CCC(C)CC3)nc3c2c(=O)[nH]c(=O)n3C)s1	0%
CCOC(=O)Nc1ccc2c(c1)Sc1ccccc1N2C(=O)CCN1CCOCC1	-4%
O=C(O)CC1=C(c2ccc(F)cc2)CCC1=O	-4%
C=CCN1CCc2cc(O)c(O)cc2C(c2ccccc2)C1 (stereo unspecified)	-9%
COc1ccc2nc(SCC(=O)N3CCNC3=O)[nH]c2c1	-11%
CCCCn1nc(C(=O)Oc2ccc3c(C)cc(=O)oc3c2)c2ccccc2c1=O	u
CC1=C(C(=O)OCC(C)C)C2(O)C(=O)c3ccccc3C2(O)N1 (stereo unspecified)	-1%
Cc1cc(NC(=O)c2ccc([N+](=O)[O-])cc2Cl)ccc1NC(=O)c1ccco1	-7%
CC(C(=O)Nc1cc(C(F)(F)F)ccc1N1CCOCC1)N1C(=O)C2CC=CCC2C1=O (stereo unspecified)	-14%
Nc1cc(-c2cccc(F)c2)nn1S(=O)(=O)c1cccc2nsnc12	-15%
CCCn1c(-c2ccc(F)cc2)nc2c(NCCCN(CCO)CCO)nc(C)nc21	u
CCOC(=O)c1ccc(NC(=S)N(CCCN2CCCC(C)C2)Cc2ccco2)cc1 (stereo unspecified)	-16%
CCn1c(O)c(N=NC(=O)C2C(=O)NCC2c2ccccc2)c2ccccc21 (stereo unspecified)	-22%
CC(C)CCn1c(N2CCN(Cc3ccccc3)CC2)nc2c1c(=O)[nH]c(=O)n2C	-4%
Cc1cccc(S(=O)(=O)NCCC(=O)OC(C)C(=O)NC(=O)NC2CCCCC2)c1 (stereo unspecified)	-3%
CC1=CC(C)(C)n2c(O)c(C3=NC(=S)NC3=O)c3cc(OC(=O)c4cccc5ccccc45)cc1c32	-16%
c1ccc(-c2n[nH]c3c2oc2ccccc23)cc1	-23%
CC(C)(C)NC[C@@H](O)COc1nsnc1N1CCOCC1	-12%
COc1ccccc1CC(=O)Nc1ccc(-c2noc(COc3ccc(Cl)c(C)c3)n2)cc1	-12%
c1ccc2c(c1)sc1nnnn12	-16%
Cc1cc(C(=O)NC2CCCCC2)c(C)n1-c1ccc(F)cc1	4.5µM*

Some of the entries so far, as a markdown table.
| canonical_smiles | HPGD inh |
| --- | --- |
| COc1ccc(OCC(=O)Nc2ccc(S(=O)(=O)N3CCCCCC3)cc2)cc1 | -15% |
| CCCOc1ccc(C2NC(=S)NC(c3ccccc3)=C2C(=O)Nc2ccc(C)cc2)cc1OC (stereo unspecified) | -10% |
| Cc1nnc(SCCn2c(N3CCC(C)CC3)nc3c2c(=O)[nH]c(=O)n3C)s1 | 0% |
| CCOC(=O)Nc1ccc2c(c1)Sc1ccccc1N2C(=O)CCN1CCOCC1 | -4% |
| O=C(O)CC1=C(c2ccc(F)cc2)CCC1=O | -4% |
| C=CCN1CCc2cc(O)c(O)cc2C(c2ccccc2)C1 (stereo unspecified) | -9% |

(next part)
SMILES	HPGD inh
O=C(NCCOc1ccccc1F)c1ccccc1SCc1ccc(F)cc1	-17%
CCSc1nnc(-c2ccc(S(=O)(=O)N3CCCC3)cc2)n1C	u
C=CCOc1ccccc1CNc1ccccc1C	-6%
COc1ccc(NC(=S)NC2CCCCCC2)c(OC)c1	-14%
C=CCOc1ccc(CNc2ccc(NC(=O)CC(C)C)cc2)cc1OC	-8%
CC1=NN(C(N)=S)C(=O)C1N=Nc1ccccc1C (stereo unspecified)	-26%
O=C(COC(=O)/C=C/c1ccc([N+](=O)[O-])cc1)NCc1ccccc1	-13%
O=C(c1ccc(F)cc1)N1CCCCC(Sc2nnnn2-c2ccccc2)C1=O (stereo unspecified)	-17%
CSc1ccccc1NC(=O)c1ccco1	-11%
CCOC(=O)CCC(NC(=O)CCCC(=O)NC(CCC(=O)OCC)C(=O)OCC)C(=O)OCC (stereo unspecified)	-7%
COCCCNc1ncnc2nc[nH]c12	4%
CSc1ccc(S(=O)(=O)NCCSc2ccccn2)cc1	-7%
O=C(CN(c1ccc(Cl)cc1)S(=O)(=O)c1ccc(Cl)c([N+](=O)[O-])c1)NCCc1ccc(F)cc1	-5%
Cn1c(SCc2nc3ccccc3s2)nnc1-c1ccc2c(c1)OCO2	-10%
Cn1c(=O)[nH]c(=O)c2c1nc(CN1CCOCC1)n2CCCO	-1%
CCOC(=O)Cn1c(N)c(C(=O)OC)sc1=S	u
Cc1ccc2nc(-c3ccc(Br)o3)oc(=O)c2c1	-23%
CCN(CC)S(=O)(=O)c1ccc(OC)c(NC(=S)Nc2cc(C)ccc2C)c1	1%
O=C(C1CCCCC1)N1CCCC(c2nc(-c3ccc(F)cc3)no2)C1 (stereo unspecified)	-3%
CN(CC(=O)NCc1ccc(F)cc1)S(=O)(=O)c1cccc2nsnc12	-7%
Cc1cc(C)c(N=Cc2c(O)n(-c3nccs3)c(=O)c3ccccc23)c(C)c1	-14%
Cc1ccc(S(=O)(=O)NCc2ccco2)c(C)c1C	-12%
Cc1ccc(-n2cc(C(=O)c3ccccc3O)cn2)cc1	u
CC(=O)c1c(O)cc(C)n(Nc2nc(C)cc(C)n2)c1=O	-14%
COC(=O)c1cn(Cc2ccccc2C)nn1	-2%

A different layout for some results above.
SMILES | HPGD inh
O=C(c1ccc(F)cc1)N1CCCCC(Sc2nnnn2-c2ccccc2)C1=O (stereo unspecified) | -17%
CSc1ccccc1NC(=O)c1ccco1 | -11%

(continued)
SMILES	HPGD inh
NC(=O)C1CCN(C(=O)c2cnn(-c3ccccc3)c2NC(=O)c2ccco2)CC1	-3%
COCCn1c(SCC(=O)NCC2CCCO2)nc2c(c1=O)SC(C)C2 (stereo unspecified)	-14%
COc1ccc(S(=O)(=O)N2CCCC(C(=O)Nc3cccc(C(C)=O)c3)C2)cc1 (stereo unspecified)	-5%
Cc1ccc(OCCCC(=O)Nc2ccc(N3CCOCC3)cc2)cc1	-3%
Cc1cccc(NC(=O)CSc2nnc(Cn3nnc(-c4ccccc4)n3)n2-c2ccccc2)c1	-7%
CCCOC(=O)Oc1ccc2c(=O)c(Oc3cc(C)cc(C)c3)coc2c1	-8%
O=C(O)c1ccccc1SCC(=O)N1CCCCC1	-6%
COc1ccc(-n2c(Cc3cccn3C)nnc2SCC(=O)N2CCCc3ccccc32)cc1	-9%
Cc1ccc(Sc2ccc(NC(=O)CCl)cc2)cc1C	u
O=C(c1cccnc1)N1CCN(C(=O)c2ccccc2F)CC1	-5%
CCOC(=O)c1cc(=O)n(-c2ccc(Cl)cc2C)[nH]1	-12%
Cc1c(Cl)cccc1N=c1c([N+](=O)[O-])nn(-c2ccccc2)n1O	-19%
Brc1cccc(CNCc2cccs2)c1	-11%
C[C@H](N)CCCC(C)(C)O	-7%
O=C(Nc1cccc(F)c1)N1CCC2(CCNCC2)CC1	2%
COc1ccc2o/c(=N\O)c(C(=O)Nc3ccccc3OC)cc2c1	13µM*
Cc1cc(O)c(-c2ccno2)cc1Cl	-13%
Cn1c(SCC(=O)C(C)(C)C)nnc1-c1ccccn1	-20%
Cc1ccc(NC(=O)C2CC(=O)N/C(=N/N=C/c3ccco3)S2)cc1 (stereo unspecified)	-7%
COc1ccc(C2=CC(c3cccc(OC)c3)n3nnnc3N2)cc1 (stereo unspecified)	u
Cc1nn(-c2cccc3cccnc23)c(=O)c2ccccc12	-9%
Cc1cccc(-n2c(Cc3ccccc3)nnc2SCC(=O)N2CCOCC2)c1	-16%
CCOC(=O)c1cc2c(C(F)(F)F)cc(-c3cccnc3)nc2o1	u
CCOC(=O)c1[nH]c(C)c(C(=O)N2CCN(C(=O)c3ccco3)CC2)c1C	-7%
O=S(=O)(Cc1cc(Cl)nc(-c2ccccc2)n1)c1ccccc1	0%

Quoted from the listing for reference:
SMILES	HPGD inh
O=C(CN(c1ccc(Cl)cc1)S(=O)(=O)c1ccc(Cl)c([N+](=O)[O-])c1)NCCc1ccc(F)cc1	-5%
Cn1c(SCc2nc3ccccc3s2)nnc1-c1ccc2c(c1)OCO2	-10%
Cn1c(=O)[nH]c(=O)c2c1nc(CN1CCOCC1)n2CCCO	-1%
CCOC(=O)Cn1c(N)c(C(=O)OC)sc1=S	u

Continued.
SMILES	HPGD inh
O=C(NCc1cccnc1)C1COc2ccccc2O1 (stereo unspecified)	-18%
CC(C)CN(CC(C)C)c1nnc(NC(=O)Cn2c(=O)oc3ccccc32)s1	-10%
O=C(CSc1ccc2nnc(-c3ccccn3)n2n1)NCc1ccc2c(c1)OCO2	-7%
CC(C)c1ccc(O)c(O)c(=O)c1 (tested in a mixture with another compound)	-8%
CCOc1ccc2nc3cc(N)ccc3c(N)c2c1	u
CCOC(=O)n1c(=O)n(Cc2ccc(Cl)cc2Cl)c2ccccc21	-5%
NC(=O)c1ccc(NC(=O)CSC2=Nc3ccccc3C3CC=NN23)cc1 (stereo unspecified)	-17%
CC(C)CNc1cc(N2CCCC2)ccc1[N+](=O)[O-]	-19%
Cc1cccc(-c2nc(=S)c3c(o2)CCCC3)c1	-16%
O=C(CCS(=O)(=O)c1cccc2nsnc12)NC1CCCCCC1	u
Cc1scc(C(=O)N/N=C/c2ccc(OC(C)C)cc2)c1C	-21%
Cc1cc(C)c(S(=O)(=O)n2cnc3ccccc32)c(C)c1	-3%
CCOC(=O)C1CCN(c2cc(=O)n(Cc3ccc(F)cc3)c(=O)[nH]2)CC1	2%
O=C(Nc1nnc(SCc2ccc(F)cc2)s1)C1CC(=O)N(c2ccc3c(c2)OCCO3)C1 (stereo unspecified)	u
Cc1ccc(N2C(=O)CC(Sc3ncn[nH]3)C2=O)cc1C (stereo unspecified)	3.2µM*
COCCNC(=O)C(c1ccc(C)cc1)N(C(=O)CCC(=O)Nc1ccccn1)C1CCCC1 (stereo unspecified)	-13%
CN(C)c1ccnc2sc3c(SCc4ccc(Cl)cc4)ncnc3c12	16µM*
CCC(Sc1ncccc1C(=O)OC(C)C)C(=O)N1CCOCC1 (stereo unspecified)	-12%
Cc1cccc(NC(=O)CCN2C(=O)C3C4C=CC(C4)C3C2=O)c1 (stereo unspecified)	-2%
O=C1c2oc3ccccc3c(=O)c2C(c2cccc(F)c2)N1CCCO (stereo unspecified)	1%
CCc1cccc2c(C(=O)CSc3nnc(-c4ccoc4C)n3C)c[nH]c12	-8%
CCCNC(=O)NCCc1ccncc1	-4%
CCN(CC)C(=O)N1CCn2c(nc3ccccc32)C1	-5%
O=C(Oc1ccc2c(c1)OCO2)c1ccc(F)cc1Cl	u
COCC(C)n1c(C)cc(C(=O)COC(=O)CNC(=O)c2ccccc2)c1C (stereo unspecified)	1%

As entered above:
Entry of `COCCNC(=O)C(c1ccc(C)cc1)N(C(=O)CCC(=O)Nc1ccccn1)C1CCCC1` (stereo unspecified) under HPGD inh: -13%
Entry of `NC(=O)c1ccc(NC(=O)CSC2=Nc3ccccc3C3CC=NN23)cc1` (stereo unspecified) under HPGD inh: -17%
Entry of `CC(C)CN(CC(C)C)c1nnc(NC(=O)Cn2c(=O)oc3ccccc32)s1` under HPGD inh: -10%
Entry of `CC(C)c1ccc(O)c(O)c(=O)c1` (tested in a mixture with another compound) under HPGD inh: -8%
Entry of `O=C(CSc1ccc2nnc(-c3ccccn3)n2n1)NCc1ccc2c(c1)OCO2` under HPGD inh: -7%
Entry of `Cc1cccc(-c2nc(=S)c3c(o2)CCCC3)c1` under HPGD inh: -16%

Remaining list, next part
SMILES	HPGD inh
CCCCOc1ccccc1NC(=O)c1ccco1	-1%
COc1ccc(C(C)=O)cc1CSc1nnc(Nc2c(C)cccc2C)s1	-15%
CC(C)C(C)(C#N)NC(=O)CSc1nc2scc(-c3ccco3)c2c(=O)n1-c1ccccc1 (stereo unspecified)	-24%
COC(=O)c1ccc(/C=C/C(=O)c2ccc(OC)c(OC)c2)cc1	-7%
Cc1cccc2nc(CSc3nc4[nH]ncc4c(=O)n3-c3cccc(Cl)c3)cc(=O)n12	u
CC1(C)CC(N=C=O)CC(C)(CN=C=O)C1 (stereo unspecified)	-4%
CN1C[C@@H]2C(c3ccc(C(F)(F)F)cc3)C3(c4ccc(C#N)cc4)CC2(C3)[C@H]1c1ccccc1 (stereo partly specified)	-18%
CC(=O)Nc1ccc(S(=O)(=O)NCCSc2ccccn2)cc1	-2%
CN(C)S(=O)(=O)Oc1ccsc1C(=O)Nc1ccc(Cl)c(Cl)c1	-20%
COc1ccc(CCNC(=O)c2nonc2N)cc1OC	-4%
CC(=O)C1=C(O)C(=O)N(C)C1c1ccccc1F (stereo unspecified)	-26%
COc1ccc(C2C(C(=O)N3CCCC3)c3cc(OC)c(OC)cc3C(=O)N2C)cc1 (stereo unspecified)	-4%
COCC(=O)N1CCC2(CCCN(Cc3cc(C(F)(F)F)cc(C(F)(F)F)c3)C2)CC1	-7%
CCc1c(C)c(C#N)c2nc3ccccc3n2c1-n1nc(C)cc1C	-12%
CCCn1cnc2sc(C(N)=O)c(C)c2c1=O	-6%
Cc1cc(C)n(-c2cc(N3CCN(S(=O)(=O)c4ccc(Br)cc4)CC3)ccc2[N+](=O)[O-])n1	-7%
CC(C)NS(=O)(=O)c1ccc(OCC(=O)NCc2ccccc2)cc1	-3%
O=S(=O)(N/N=C1/CC(c2ccccc2)Oc2ccccc21)c1ccc(Br)cc1 (stereo unspecified)	-18%
CCSC1=C(C#N)C2(CCCCC2)C(C#N)C(=O)N1 (stereo unspecified)	-16%
O=C(NCC(=O)N(c1cnc2ccccc2c1)C(C(=O)NC1CCCC1)c1ccncc1)c1ccco1 (stereo unspecified)	-13%
Nc1nc2ccccc2n1CCOc1ccccc1Cl	-5%
CC(NC(N)=O)C12CC3CC(CC(C3)C1)C2 (stereo unspecified)	-4%
CCCCCCNC(=O)CCCCCNS(=O)(=O)c1ccc(OC)cc1	-11%
